Vif TR-FRET: inhibitors of Vif binding to APOBEC3G peptide, primary screen, biochemical, TR-FRET, GST-Vif 1-94, biotin-A3G peptide, dose response retest (AID 1117319); hit rate 0.57% among 260,000; one-dose inhibition, %; IC50 in µM for titrated hits; TR-FRET GST-Vif / biotin-A3G peptide binding; higher % means a stronger effect; test concentration not given here; strong numbers were not always called active; Virion infectivity factor (Human immunodeficiency virus type 1 group M subtype B (isolate …;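 active = above the screen mean plus three standard deviations and confirmed in dose response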;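 note: Vif residues 1-94 fused to GST binding biotinylated APOBEC3G peptide 110-148; 0% = full assay without inhibitor and 100% = GST in place of GST-Vif; retest series ran down from 100 µM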
ALR inh: inhibitors of human ALR sulfhydryl oxidase, primary screen, biochemical, H2O2 detection, HRP-luminol luminescence, single point; inhibition, % (test concentration not listed); purified ALR, DTT oxidation; hit rate 3.8% among 290,000; FAD-linked sulfhydryl oxidase ALR (Homo sapiens), P55789; AID 485317, 2010;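 active = mean and each replicate at 75% or more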;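 note: stock transfer was 7.5 nL into about 7.5 µL; 0% = neutral wells and 100% = wells with inactivated enzyme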
Target sequence (P55789 whole entry, looked up): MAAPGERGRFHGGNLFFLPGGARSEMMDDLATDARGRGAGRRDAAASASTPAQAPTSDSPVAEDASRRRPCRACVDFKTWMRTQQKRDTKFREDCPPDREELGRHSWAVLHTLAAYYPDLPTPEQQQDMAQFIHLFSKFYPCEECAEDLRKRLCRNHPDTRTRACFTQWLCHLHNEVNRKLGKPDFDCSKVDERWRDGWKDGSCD
FGF22 binding: binders of human FGF22 protein, primary screen, FGF22 synaptogenesis inhibitor project, biophysical, thermal shift, single point. recombinant FGF22 thermal shift, SYPRO orange fluorescence; percent of sucrose octasulfate shift, DMSO zero. calls only at 9.99 µM. hit rate 1.5% among 340,000. AID 651658, 2012;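 active = melting point raised past a set limit in the mean and every replicate; three in four hits are not shown here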
Target sequence (Q9HCT0 whole entry, looked up): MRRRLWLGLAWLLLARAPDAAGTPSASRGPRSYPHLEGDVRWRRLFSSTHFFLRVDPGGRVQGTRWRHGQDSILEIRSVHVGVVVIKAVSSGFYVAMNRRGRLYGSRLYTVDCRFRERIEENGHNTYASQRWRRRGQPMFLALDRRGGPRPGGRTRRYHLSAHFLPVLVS
MLL AF4-AF9 inh: inhibitors of AF4 peptide binding to AF9, primary screen, biochemical, AlphaScreen, biotin-AF4 peptide, FLAG-AF9, single point; Protein AF-9 (Homo sapiens), P42568; inhibition, % at 10 µM; hit rate 0.47% among 350,000; AID 651704, 2012;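 active = every replicate reaching a set inhibition limit, whatever the replicate mean, cut at about 25% in these data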;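 note: 0% = plate neutral control median and 100% = total signal loss; the record names both 10 and 1 µM as test concentration; the first replicate is given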
Target sequence (P42568 whole entry, looked up): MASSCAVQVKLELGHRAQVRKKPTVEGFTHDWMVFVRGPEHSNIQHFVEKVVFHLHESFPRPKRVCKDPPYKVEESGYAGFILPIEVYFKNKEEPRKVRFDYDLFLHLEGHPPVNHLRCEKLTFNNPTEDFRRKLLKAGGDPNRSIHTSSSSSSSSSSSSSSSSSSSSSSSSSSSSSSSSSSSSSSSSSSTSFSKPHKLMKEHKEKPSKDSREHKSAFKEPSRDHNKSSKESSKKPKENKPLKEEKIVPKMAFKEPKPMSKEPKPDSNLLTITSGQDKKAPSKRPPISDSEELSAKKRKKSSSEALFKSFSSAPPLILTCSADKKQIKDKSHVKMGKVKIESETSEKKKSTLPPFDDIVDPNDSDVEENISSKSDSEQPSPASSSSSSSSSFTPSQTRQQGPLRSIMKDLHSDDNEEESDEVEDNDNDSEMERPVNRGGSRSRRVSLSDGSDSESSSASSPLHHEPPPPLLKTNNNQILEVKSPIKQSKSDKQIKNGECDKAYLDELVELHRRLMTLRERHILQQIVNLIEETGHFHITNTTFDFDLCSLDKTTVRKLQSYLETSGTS
Ecoli growth: E. coli growth inhibition, primary screen, OD600 | hit rate 0.21% among 330,000 | OD600 absorbance (no concentration beside the values) | Escherichia coli growth, 23 h; stronger effect = lower value | AID 1053175, 2014;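 active = OD600 absorbance below the run mean of sample wells minus 3.6 SD, in any replicate, cut at about 0.56 in these data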;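 note: stock transfer was 300 nL into about 60 µL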
HNF4A DNA FP: change in binding of human HNF4A to DNA, primary screen, biochemical, fluorescence polarization, FITC-DNA; Hepatocyte nuclear factor 4-alpha (Homo sapiens), P41235; 1 h; activity change, % at 10 µM; hit rate 0.3% among 360,000; AID 1224865, 2016; in the data active = activity change above about 30%, passing the limit was not always enough;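 note: controls were the assay level and a saturating level of protein; the project sought stronger binding though the title names inhibitors; some compounds called inactive have numbers as strong as hits; positive values seem to mean higher polarization but the record does not say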
rRNA inh HTS: reduced GFP signal of wild-type E. coli, primary screen, bacterial rRNA inhibitor project, GFP/RFP fluorescence, OD600, single point; E. coli WT GFP vs humanized-ribosome RFP mutants, 24 h; stronger effect = lower value; DMSO median 0, no signal -100; hit rate 1.6% among 350,000; GFP signal change (wild-type ribosome), % (concentration not given with the values);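 active = significant combined selectivity score with lowered wild-type GFP, culture density cut under 30%, mutant RFP and density less affected; inactive = any of these conditions unmet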; note: one replicate is shown; some compounds called inactive have numbers as strong as hits
rRNA inh HTS OD600: recorded beside rRNA inh HTS, whose call it bears; OD600 change, %; measured here: OD600 growth;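 optical density of the mix in the first replicate; 0 = DMSO median and -100 = no signal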
rRNA inh HTS RFP: further read-out of rRNA inh HTS, marked with its call; RFP signal change, %; measured here: RFP humanized mutant strains;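 first replicate; 0 = DMSO median and -100 = no signal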
* hit, by the source's call; i = inactive; . = no result given; & = joins results of further samples. Not all compounds are listed; the hit share may differ from the screen's.

SMILES	Vif TR-FRET	ALR inh	FGF22 binding	MLL AF4-AF9 inh	Ecoli growth	HNF4A DNA FP	rRNA inh HTS	rRNA inh HTS OD600	rRNA inh HTS RFP
CO[C@H]1CN(C)C(=O)c2ccc(NC(=O)Nc3cccc(F)c3)cc2OC[C@@H](C)N(C(=O)Nc2c(C)noc2C)C[C@@H]1C	.	.	i	0.5	.	.	-3	1	3.0
CC(C)CNC(=O)NC(=O)COC(=O)c1cc([N+](=O)[O-])ccc1NCc1ccccc1Cl	-1%	-5	.	0.7	0.67	.	16	12	3.9
COC(=O)[C@]12CCCCC=C1N(Cc1ccc3c(c1)OCO3)C(=O)[C@H](CC(=O)N1CCCC1)C2	.	.	i	3.3	.	-1.2	-8	-8	5.2
COc1ccc(-c2cn3c(C)c(C(=O)Nc4cc(NC(C)=O)ccc4OC)sc3n2)cc1	12%	-3	.	.	0.64	14	.	.	.
O=C(CCNS(=O)(=O)c1ccccc1)N1CCN(c2ccccc2)CC1	16%	96*	i	0.1	.	-0.2	0	7	1.8
O=C(NCCCO)c1cc2c([nH]c3ccccc32)c(-c2ccc(F)cc2)n1	.	98*	i	-13	0.68	0.3	-17	-28	11
COc1ccc(CCNCC(O)COc2cccc(Br)c2)cc1 (configuration not stated)	-16%	2	i	0.1	0.62	0.4	2	-19	5.0
CC(=O)c1c(C)[nH]c(C(=O)COC(=O)CCCOc2ccccc2)c1C	-9%	2	i	-2.3	0.66	-8.4	12	7	1.3
COCC(=O)Nc1ccc2c(c1)[C@@H]1C[C@H](CC(=O)NCc3ccc(OC)cc3)O[C@@H](CO)[C@@H]1O2	.	.	i	-1.3	.	.	2	5	-3.2
O=S(=O)(c1ccccc1)c1nc(-c2ccco2)oc1N1CCCCCC1	25%	2	.	.	0.74	-0.8	.	.	.
Cc1nc2ncnn2c(C)c1CCC(=O)N1CCN(Cc2ccccc2)CC1	-1%	-14	.	.	0.64	1.1	.	.	.
CCOc1ccc(N/C(C)=C/C(=O)c2ccc(C)o2)cc1	1%	-18	.	.	0.7	1.6	.	.	.

A few values from the list:
`CO[C@H]1CN(C)C(=O)c2ccc(NC(=O)Nc3cccc(F)c3)cc2OC[C@@H](C)N(C(=O)Nc2c(C)noc2C)C[C@@H]1C` @ rRNA inh HTS: -3
`O=C(CCNS(=O)(=O)c1ccccc1)N1CCN(c2ccccc2)CC1` @ MLL AF4-AF9 inh: 0.1

Continuation:
SMILES	Vif TR-FRET	ALR inh	FGF22 binding	MLL AF4-AF9 inh	Ecoli growth	HNF4A DNA FP	rRNA inh HTS	rRNA inh HTS OD600	rRNA inh HTS RFP
CCN(Cc1nc(-c2ccc(Cl)cc2)no1)CC1CCCO1 (configuration not stated)	20%	-23	i	2.2	0.69	2.8	4	-11	1.3
Cc1ccc2c(c1)c1c(n2CCc2ccc(C)nc2)CCN(C)C1	.	2	i	-2.7	0.65	-8.6	.	.	.
CCCNC(=O)C[C@@H]1CC[C@@H]2[C@H](COC[C@@H](O)CN2C(=O)Nc2ccccc2OC)O1	.	.	i	-11	.	.	1	13	-0.3
COc1cccc(-c2ccc([C@@H]3[C@H]4CN(S(=O)(=O)c5cn(C)cn5)CCCCN4[C@H]3CO)cc2)c1	.	.	i	-7.9	.	.	-3	-20	12
CC(C)NC(=S)Nc1c(N)[nH]c(=O)[nH]c1=O	-6%	12	i	-2.2	0.7	-1.0	6	-2	-1.3
CCOC(=O)c1cnc(SCC(=O)OCC(=O)N(CC)C2CCS(=O)(=O)C2)nc1N (configuration not stated)	4%	1	i	-0.4	0.7	0.7	9	11	3.4
NC(=O)C1=C(c2ccccc2)c2ccccc2C1=O	13%	.	i	-0.1	0.56	-5.3	-36	-66	-12
COCCn1c(C)cc(C(=O)CSc2nnc3ccccn23)c1C	2%	-6	i	2.6	0.73	-0.3	3	12	0.1
Cc1cc(C)n(-c2ccccc2[N+](=O)[O-])n1	0%	-9	i	-1.6	0.69	1.9	24	18	0.2
Cc1c(NS(=O)(=O)c2cc(C(=O)OCC(=O)N3CCC(C)CC3)ccc2Cl)c(=O)n(-c2ccccc2)n1C	7%	1	i	-1.0	0.68	-0.9	2	5	1.0
COc1ccc(-c2cn(CC[C@H]3CC[C@@H](NS(=O)(=O)c4ccccc4C)[C@@H](CO)O3)nn2)cc1	.	.	i	0.8	.	.	-3	-11	0.1
Cc1cccc(C)c1-n1c(C)cc(/C=N\Nc2ccc([N+](=O)[O-])cn2)c1C	11%	-3	.	.	.	38	.	.	.
O=[N+]([O-])c1cccnc1N/N=C/c1ccccc1O	3%	4	i	-0.4	.	3.4	15	9	0.2
C=CCn1c(=O)c2c(nc(Br)n2Cc2ccccc2Cl)n(C)c1=O	-135%	38	.	.	0.7	1.4	.	.	.
O=C(Nc1ccccc1)c1cc2ccc3ccccc3c2s1	-30%	-7	i	-0.9	0.73	-1.5	3	13	-0.7
Cc1ccccc1CN1CCNC(=O)C1CC(=O)N(C)CCC1CCOCC1 (configuration not stated)	0%	-8	i	-3.6	0.71	2.2	4	3	-2.7
CCOCCCNC(=O)C(c1ccc(Cl)cc1)N(Cc1cccs1)C(=O)c1ccccn1 (configuration not stated)	.	.	i	-2.7	0.7	-5.3	-23*	-16*	1.3*
CCc1c(C(=O)NCc2ccccc2Cl)[nH]c(C)c1C(C)=O	68%	0	.	.	0.63	4.2	.	.	.
CCC(Oc1ccc(C)cc1)C(=O)Nc1ccc(S(=O)(=O)Nc2cc(C)on2)cc1 (configuration not stated)	.	2	i	-8.5	0.7	0.7	0	-3	-9.6
CCn1nc(C(=O)Nc2ccc3nc(C)sc3c2)c2ccccc2c1=O	6%	-11	.	.	0.71	0.3	.	.	.
Cc1cc(OCC(=O)Nc2ccncc2)ccc1Br	-3%	-3	.	.	0.69	0.0	.	.	.
CC1=C(C(=O)Nc2cc(C(=O)N3CCC(C)CC3)ccc2C)SCCO1	10%	1	i	2.9	0.66	3.4	-1	-5	-1.5
CC(=O)OC(C(=O)NCCN1CCOCC1)c1c(F)cccc1F (configuration not stated)	-1%	.	i	0.4	0.71	-2.4	16	8	6.1
COc1ccc(CN(C)C[C@@H]2OCCCC[C@H](C)Oc3ccc(NC(=O)Cc4ccccc4)cc3C(=O)N([C@@H](C)CO)C[C@@H]2C)cc1	-5%	.	i	4.1	.	-4.7	-5&1	0&-13	3.7&-0.3
CCCN(C(=O)C1CSC2(C)CCC(=O)N12)c1c(N)n(Cc2ccccc2)c(=O)[nH]c1=O (configuration not stated)	3%	2	i	0.9	0.68	0.4	7	12	-2.0
Cc1cc(C)c(C(N)=O)c(Nc2cccc3ccccc23)n1	6%	.	.	.	0.73	-2.5	.	.	.
C[C@H]1CN([C@@H](C)CO)C(=O)c2cccc(N(C)C)c2O[C@@H]1CN(C)Cc1ccc(-c2ccccc2)cc1	.	.	i	5.4	.	.	-5	-8	-1.1
N#CC(c1cccc([N+](=O)[O-])c1)C(CC(=O)c1ccccc1)c1ccccc1 (configuration not stated)	-2%	.	i	0.4	.	1.9	0	-6	-1.9
O=c1cc(/N=C/c2coc3cc(Br)ccc3c2=O)[nH]c(=S)[nH]1	5%	-11	i	-13	.	-0.7	-1	-4	-2.1
O=C(NCC1CCCO1)c1cn(Cc2ccccc2)nc1-c1ccccc1 (configuration not stated)	3%	-1	i	3.2	0.71	-3.2	0	-11	0.4
CC(=O)N[C@H]1CC[C@@H](CC(=O)NCC2CCCCC2)O[C@H]1CO	.	.	i	-1.8	.	.	2	9	1.1
N#Cc1ccccc1OCC(=O)C1CC1	4%	-4	i	5.1	0.66	2.8	15	-3	2.7
Cc1ccc2nc3n(c(=O)c2c1)-c1cc2ccccc2cc1C(=O)NC3CC(C)C (configuration not stated)	-5%	.	i	-0.7	.	-8.9	9	1	4.1
CC(C)OC(=O)CC(=O)CSc1nc(-c2ccc(F)cc2)cc(-c2ccccc2)c1C#N	.	-16	i	-6.0	0.72	0.8	1	-5	-1.1
O=C(CCN=C1NS(=O)(=O)c2ccccc21)Nc1ccc(Cl)cc1F	-11%	-2	i	-1.3	0.69	2.5	-2	-9	-4.1
CO[C@@H]1CN(C)C(=O)c2cc(NC(=O)c3ccc4c(c3)OCO4)ccc2OC[C@@H](C)N(CCC(F)(F)F)C[C@@H]1C	.	.	i	0.2	.	.	-8	-20	-0.3
O=C(NCCCN1CCCC1=O)c1ccc(Cl)c(NS(=O)(=O)c2ccc(F)cc2)c1	7%	-2	.	.	0.69	1.7	.	.	.
COc1ccc(C)c(-n2c(=O)n(Cc3ccccc3)c(=O)c3[nH]cnc32)c1	10%	-1	i	0.6	0.68	6.6	-7	2	4.3
CC(C)[C@@H]1Cc2[nH]c(=S)[nH]c(=O)c2[C@H](CCc2ccccc2)O1	.	.	i	1.7	.	1.5	0	-19	-6.6
Cc1c(Cl)cccc1NC(=S)NCc1ccc2c(c1)OCO2	2%	22	.	.	0.67	0.7	.	.	.
O=C(COC(=O)/C=C/c1cccc(F)c1)NNC(=O)c1ccccc1	.	15	i	-14	0.69	-2.1	6	5	3.3
COCCN(CCOC)C(=O)c1sc2nc(-c3ccccc3)cn2c1C	-1%	-2	.	.	0.74	-3.5	.	.	.
CCOC(=O)NC(=O)CSc1cc(C)c2cc(C)cc(C)c2n1	-1%	1	i	-2.0	0.68	2.0	.	.	.
Cc1ccc(NC(=O)N2CCc3ccccc32)cc1	1%	1	.	.	0.69	-3.5	.	.	.
COc1ccc(CCNC(=O)CN(c2ccc(C)cc2)S(=O)(=O)c2c(C)noc2C)cc1OC	-2%	4	.	.	0.7	-2.5	.	.	.
COC(=O)C(O)(NC(=O)OCc1ccccc1)C(F)(F)F (configuration not stated)	1%	-4	.	.	0.66	-2.9	.	.	.
O=C1NC[C@H](CCCCN2C[C@H](Cc3ccc(O)cc3)N(CCC3CCCCC3)C(=O)C2=O)N(CC2CCCCC2)C1=O	.	.	i	7.0	.	3.1	17	8	3.0
CCOc1ccc(C(=O)NCc2cccnc2)cc1[N+](=O)[O-]	.	0	i	-1.8	0.67	2.0	12	1	-1.1
CC(C)CN(C(=O)CCC(=O)OCC(=O)N(C)c1ccccc1)c1c(N)n(CC(C)C)c(=O)[nH]c1=O	-6%	1	i	0.6	0.62	0.6	-1	3	-1.3
Cc1c(CC(=O)NCC(=O)N[C@H](Cc2ccccc2)C(=O)O)c(=O)oc2cc(O)ccc12	.	.	i	-1.9	0.71	3.6	12	12	2.4
C[C@@H]1CN([C@H](C)CO)C(=O)c2cc(C#CC3(O)CCCC3)cnc2O[C@H]1CN(C)Cc1ccccn1	.	.	i	-1.5	.	.	2	-1	-1.0
CC(C)(C)c1csc(NC(=O)c2cccnc2Cl)n1	.	6	i	-6.6	0.67	1.4	-23	-18	-2.9
CC(C)OC(=O)N(C)C[C@H]1OCc2ccccc2-c2ccccc2C(=O)N([C@H](C)CO)C[C@@H]1C	.	.	i	1.6	.	.	1	7	-0.7
c1coc(C2Nc3ccccc3C3OCCC23)c1 (configuration not stated)	-5%	-3	.	.	0.67	-1.9	.	.	.
Cc1ccccc1C(=O)Nc1ccc2nc3n(c(=O)c2c1)CCCC3	-6%	-6	i	2.9	0.68	1.4	-3	0	0.3

Screening results: PubChem BioAssay, several laboratories
